T cruzi inh: blocks replication of Trypanosoma cruzi | T. cruzi beta-gal in NIH3T3, luminescence, 90 h | inhibition, % (concentration not given with the values) | 1.4% of 300,000 active | AID 1885;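 active means mean inhibition across valid replicates above about 55%, limit read from the data; inconclusive means mean below that limit but half or more replicates reach it; inactive means mean below it, under half of replicates reach it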;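 further: signal also drops with host cell toxicity which is not excluded here; 0% = plate median of DMSO wells and 100% = zero luminescence signal; higher percent means less beta-gal luminescence so fewer parasites; stock transfer was 50 nL into about 50 µL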
Vif TR-FRET: HIV-1 Vif–A3G interaction blockers – biochemical, TR-FRET, GST-Vif 1-94, biotin-A3G peptide, dose response retest, primary screen (AID 1117319) | TR-FRET GST-Vif / biotin-A3G peptide binding; higher % means a stronger effect; test concentration not given here; strong numbers were not always called active | inhibition, %, or IC50 in µM where a hit was titrated | 0.57% of 260,000 active;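 active means above the screen mean plus three standard deviations and confirmed in dose response; inconclusive means results disagree or hit not tested in dose response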;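 further: Vif residues 1-94 fused to GST binding biotinylated APOBEC3G peptide 110-148; 0% = full assay without inhibitor and 100% = GST in place of GST-Vif; retest series ran down from 100 µM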
A1 inh: inhibitors of the anti-apoptotic protein A1, read as caspase activation | 0.066% of 330,000 active | caspase activation, % (no concentration beside the values) | MEF A1-2A-BIM cells, Caspase-Glo 3/7 luminescence, 3 h; percent of clofoctol response, vehicle zero;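 active means over half of replicate activation scores above 10%, or exactly half above 10 with the replicate mean above 10; inconclusive means replicate mean below 10 yet half the replicates above 10; inactive means over half of replicates below 10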;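 further: wells of about 30 µL received 50 nL stock; many hits fall short of the cut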
AF4-AF9 inh: inhibitors of human MLL-AF4/AF9 interaction; AlphaScreen, biotin-AF4 peptide binding to FLAG-AF9; inhibition, % at 10 µM; 0.47% of 350,000 active;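 active means every replicate reaching a set inhibition limit, whatever the replicate mean, cut at about 25% in these data; inconclusive means mean inhibition reaches that limit but some replicates miss it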;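 further: 0% = plate neutral control median and 100% = total signal loss; the record names both 10 and 1 µM as test concentration; the first replicate is given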
Target sequence (P42568 whole entry, looked up): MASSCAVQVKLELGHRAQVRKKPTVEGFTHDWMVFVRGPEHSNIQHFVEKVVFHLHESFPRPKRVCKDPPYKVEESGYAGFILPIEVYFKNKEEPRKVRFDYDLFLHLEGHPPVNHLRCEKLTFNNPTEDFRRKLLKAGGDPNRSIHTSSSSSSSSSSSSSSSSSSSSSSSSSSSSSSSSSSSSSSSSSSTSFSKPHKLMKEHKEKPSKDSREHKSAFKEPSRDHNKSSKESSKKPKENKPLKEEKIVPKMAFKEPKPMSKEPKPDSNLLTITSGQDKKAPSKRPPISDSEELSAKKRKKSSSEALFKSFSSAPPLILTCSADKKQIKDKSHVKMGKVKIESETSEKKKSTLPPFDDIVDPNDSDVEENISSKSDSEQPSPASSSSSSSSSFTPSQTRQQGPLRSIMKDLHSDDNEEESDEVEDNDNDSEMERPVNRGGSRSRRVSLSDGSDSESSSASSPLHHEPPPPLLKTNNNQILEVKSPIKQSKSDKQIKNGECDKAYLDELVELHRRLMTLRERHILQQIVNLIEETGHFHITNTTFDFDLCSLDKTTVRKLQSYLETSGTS
RanGTP-Imp inh: inhibitors of RanGTP-importin-beta interaction, primary screen, biochemical, FRET, CFP-Ran, YFP-importin-beta, homogeneous | cell-free CFP-Ran/YFP-importin-beta FRET ratio | inhibition, % (concentration not given with the values) | 1.1% of 300,000 active | AID 2216;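 active means most replicates above 15%; inconclusive means exactly half above 15%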;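 further: 0% = DMSO wells and 100% = Ran loaded with GDP instead of GTP; wells of about 40 µL received 100 nL stock; the first replicate is given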
LANA-H2A inh: blocks KSHV LANA binding to histone H2A/H2B | cell-free LANA-H2A/H2B peptide, fluorescence polarization | AID 2629 | inhibition, % (no concentration beside the values) | 0.6% of 320,000 active; in the data active means inhibition mostly above about 10%, no sharp cut-off; inactive means mostly below about 6.7%;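 further: stock transfer was 7.5 nL into about 10 µL; 0% = median of vehicle wells and 100% = median of positive control wells; one replicate is shown; the record names a cut of 25% in any replicate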
Calb FLC: affects C. albicans growth with fluconazole. C. albicans CaCi-2 (fluconazole-resistant clinical isolate) + fluconazole, Alamar Blue growth, 48 h. growth inhibition, % (no concentration beside the values). 0.57% of 300,000 active;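 active means most replicates above 75%; inconclusive means exactly half above 75%; inactive means most below 75%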;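 further: all wells also contain fluconazole at 8 µg/ml as a sub-toxic cotreatment; 0% = median of DMSO wells and 100% = median of geldanamycin control wells; wells of about 8 µL received 7.5 nL stock; the first replicate is given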
Beta cell apopt: blocks beta cell apoptosis. INS-1E cytokine-induced death, ATP luminescence, 48 h; percent of positive-control rescue, neutral wells zero. 0.8% of 300,000 active. protection from apoptosis, % (no concentration beside the values);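 active means all replicates at 75% or more, or half of them and the mean; inconclusive means half reach 75% but not the mean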;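 further: 0% = cytokine-treated negative control wells and 100% = positive control rescue; higher means more ATP so stronger rescue from cytokine killing; wells of about 40 µL received 100 nL stock; the first replicate is given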
Active calls of the source: *; ? = inconclusive; / = not tested or not shown; & = joins results of further samples.

SMILES	T cruzi inh	Vif TR-FRET	A1 inh	AF4-AF9 inh	RanGTP-Imp inh	LANA-H2A inh	Calb FLC	Beta cell apopt
Cc1ccc(S(=O)(=O)/N=C(\N)Nc2nc(C)c3cc(C)c(C)cc3n2)cc1	35.7	-14.3%	-1.1	/	-2.2	-3.6	-4.8	8.9
O=C(CSc1ncccn1)N/N=C/c1ccc(OC2CSC2)cc1	-5.2	-0.9%	-0.3	-1.2	5.6	-0.1	-1.1	-0.6
Cc1ccc(NC(CC(=O)c2ccccc2)c2ccc(F)cc2)cc1 (stereo not given)	-10.7	29.2%	0.0	/	-0.7	-1.2	1.0	-9.3
CC1CC(=O)N(c2ccc(NCCc3ccccc3)c([N+](=O)[O-])c2)C1=O (stereo not given)	-0.9	-4.6%	-0.3	-45.9	-1.2	-1.4	0.9	-10.2
CCOC(=O)c1ccc(NC2=CC(=O)CC(c3ccco3)C2)cc1 (stereo not given)	-0.6	/	-0.6	0.4	10.1	0.1	-19.0	0.2
Cc1oc(C(N)=O)cc1COc1ccc(C(N)=O)cc1	1.2	0.8%	-0.4	/	-1.3	-3.3	?	-2.3
O=C(O)C1C2CCC(C2)C1C(=O)Nc1nc2ccccc2s1 (stereo not given)	-4.6	0.1%	-1.7	/	-0.6	-10.4	-0.4	-9.5
CC(=O)Nc1ccc(SC[C@H](Cc2ccccc2)N2CC[C@@H](O)CCC2=O)cc1	/	/	1.5	-4.1	/	3.5	/	-2.2
Cc1ccc(S(=O)(=O)N2CCN(CCNC(=O)C(=O)NCc3ccccc3)CC2)cc1	5.6	/	-0.5	0.1	0.0	6.0	-2.5	/
O=C(NC(O)C(=O)c1ccc(F)cc1)c1ccc(F)cc1 (stereo not given)	-4.1	-13.8%	-0.2	-3.7	3.0	1.5	15.8	/
CC1(C)Cc2c(c(N3CCOCC3)nc3snc(Br)c23)CO1	36.2	20.3%	-0.3	/	-3.0	4.7	-1.2	7.6
O=C(CCS(=O)(=O)c1ccccc1)NC12CC3CC(CC(C3)C1)C2	-1.7	1.5%	0.6	/	8.5	0.6	-34.9	0.7
Cc1cc2c(c(SCC(N)=O)n1)C(=O)OC2	-4.9	3.6%	-0.5	0.9	-5.5	1.3	25.8	-4.2
Cc1nnc(SCC(=O)NC2CCCC2)s1	4.0	-3.6%	-0.6	/	1.2	8.1	-7.2	-9.3
O=C(Cc1cccs1)Nc1ccccn1	-18.5	2.5%	-2.6	/	2.2	-4.3	-7.8	1.2
N=c1n(Cc2ccccc2Cl)c2ccccc2n1CC(O)c1ccco1 (stereo not given)	5.5	-2.4%	-0.1	0.7	?	10.1	-14.0	3.6
O=C(CN1C(=O)c2ccccc2C1=O)Nc1cccc([N+](=O)[O-])c1	-15.7	9.1%	-0.1	-1.9	21.4*	-0.5	-0.3	0.0
O=C(NCCc1ccccc1)C(=O)c1cn(CC(=O)N2CCCC2)c2ccccc12	5.8	/	-0.3	0.6	0.0	-0.5	-8.3	-6.0
COC(=O)Cc1ccc(NC(=S)N2CCN(C(=O)C3CCCO3)CC2)cc1 (stereo not given)	-3.2	2.1%	0.1	-7.8	1.6	-4.4	-3.6	-1.5
N#CC1=C(N)Oc2c(ccc3cccnc23)C1c1ccncc1 (stereo not given)	13.3	6.6%	0.4	/	0.5	2.2	0.2	28.4

3 entries from above, in markdown.
| SMILES | T cruzi inh | Vif TR-FRET | A1 inh | AF4-AF9 inh | RanGTP-Imp inh | LANA-H2A inh | Calb FLC | Beta cell apopt |
| --- | --- | --- | --- | --- | --- | --- | --- | --- |
| Cc1nnc(SCC(=O)NC2CCCC2)s1 | 4.0 | -3.6% | -0.6 | / | 1.2 | 8.1 | -7.2 | -9.3 |
| Cc1ccc(S(=O)(=O)/N=C(\N)Nc2nc(C)c3cc(C)c(C)cc3n2)cc1 | 35.7 | -14.3% | -1.1 | / | -2.2 | -3.6 | -4.8 | 8.9 |
| Cc1ccc(S(=O)(=O)N2CCN(CCNC(=O)C(=O)NCc3ccccc3)CC2)cc1 | 5.6 | / | -0.5 | 0.1 | 0.0 | 6.0 | -2.5 | / |

Reformatted as a markdown table: part of the list above.
| mol | T cruzi inh | Vif TR-FRET | A1 inh | AF4-AF9 inh | RanGTP-Imp inh | LANA-H2A inh | Calb FLC | Beta cell apopt |
| --- | --- | --- | --- | --- | --- | --- | --- | --- |
| O=C(CSc1ncccn1)N/N=C/c1ccc(OC2CSC2)cc1 | -5.2 | -0.9% | -0.3 | -1.2 | 5.6 | -0.1 | -1.1 | -0.6 |
| CC1(C)Cc2c(c(N3CCOCC3)nc3snc(Br)c23)CO1 | 36.2 | 20.3% | -0.3 | / | -3.0 | 4.7 | -1.2 | 7.6 |
| Cc1cc2c(c(SCC(N)=O)n1)C(=O)OC2 | -4.9 | 3.6% | -0.5 | 0.9 | -5.5 | 1.3 | 25.8 | -4.2 |

The list goes on:
SMILES	T cruzi inh	Vif TR-FRET	A1 inh	AF4-AF9 inh	RanGTP-Imp inh	LANA-H2A inh	Calb FLC	Beta cell apopt
Cc1ccc(N(C(=O)c2csnn2)C(C(=O)NC2CCCCC2)c2ccncc2)cc1 (stereo not given)	6.2	-3.7%	-0.1	-4.6	5.7	-4.0	-2.9	-5.3
O=C(NC1CC1)c1cc2c(s1)-c1ccccc1OC2	-8.9	-4.7%	0.2	1.2	-4.4	6.9	6.7	57.5
CCCC[n+]1ccn(-c2nc3ccccc3nc2[N-]S(=O)(=O)c2ccc(Cl)cc2)c1	-2.2	-42.5%	1.3	/	?	2.6	13.4	-3.7
O=C(NCc1ccc2c(c1)OCO2)c1cc2ccccc2o1	-23.7	7.4%	-1.1	/	5.1	0.1	-32.3	-2.7
COc1ccc(CCN(Cc2nc3ccccc3c(=O)[nH]2)C(=O)C2CC2)cc1	-9.4	8.1%	0.0	-1.7	-0.2	-1.7	-15.2	-7.0
O=C(NCCc1ccc(F)cc1)Nc1ccccc1	2.7	/	0.1	2.7	-1.1	-0.8	1.8	/
Cc1c(NC(=O)Cn2nc(C(F)(F)F)c3c2CCCC3)c(=O)n(-c2ccccc2)n1C	9.3	0.8%	1.2	/	-0.7	3.2	1.3	-4.4
COC(=O)c1c(-c2c(Cl)cccc2Cl)noc1NC(=O)NN1CCCCC1	17.7	0.3%	-1.0	5.4	-0.3	-4.1	6.6	-7.1
O=C(Nc1nccs1)C1C2CC3OC(=O)C1C3C2 (stereo not given)	-5.3	-3.2%	-0.1	/	1.8	-1.1	-2.9	5.6
Oc1[nH]c2ccc(Br)cc2c1N=Nc1ccc(C(F)(F)F)cn1	74.6*	?	0.7	6.3	-3.5	0.6	-4.8	23.0
O=C(NNC(=O)c1nn(-c2ccc(F)cc2)ccc1=O)c1ccc(C(F)(F)F)cc1	/	5.4%	0.3	0.4	4.0	0.1	1.5	/
O=C(C(=O)N1CCOCC1)c1cn(CC(=O)N2CCc3ccccc3C2)c2ccccc12	-2.1	5.1%	0.6	-14.1	1.6	1.3	0.5	1.1
Cc1ccc(C(=O)N2CCC3(CC2)NCCc2[nH]cnc23)cc1C	-6.8	-4.4%	-0.1	3.4	5.0	-5.5	7.3	-2.9
O=C(NCc1ccccc1)c1ccc[n+]([O-])c1	-25.4	/	1.0	-2.5	0.3	0.3	-12.0	-4.1
Cc1ccc(NS(=O)(=O)c2c(C(=O)N3CCCC3)c(C)n(C)c2C)cc1	12.4	2.9%	-1.4	-1.7	6.7	-1.4	-6.2	/
CC(C)C(NC(=O)c1c(F)cccc1F)C(=O)NCc1ccc(S(=O)(=O)N2CCOCC2)cc1 (stereo not given)	/	-6.7%	-0.7	-1.7	/	4.0	/	-11.9
COc1cccc(C(=O)NCC(=O)N2CCC3(CC2)NCCc2[nH]cnc23)c1OC	-7.9	/	-0.5	0.0	-5.0	-1.4	1.9	-4.5
Cc1cc(C)n2cc(-c3ccc(Cl)cc3)c(C(=O)O)c2n1	13.8	9.2%	-0.1	-1.4	-2.4	-2.9	23.9	6.8
O=C(N=C1c2ccccc2CN1c1ccc(F)c(Cl)c1)c1cccnc1Cl	26.4	1.0%	-7.0	-0.5	-1.6	6.7	40.5	/
Cc1oc(-c2ccccc2Cl)nc1CS(=O)(=O)CC(=O)N1CCOCC1	-1.4	/	0.1	-11.1	4.1	4.2	-2.5	-2.9
O=c1c(C(c2c(O)nc3n(c2=O)CCS3)c2cccc3ccccc23)c(O)nc2n1CCS2	1.9	0.6%	0.8	/	-4.9	2.0	-4.0	-3.4
O=C(Cn1c[n+](CC(=O)c2ccc([N+](=O)[O-])cc2)cn1)c1ccc([N+](=O)[O-])cc1	-14.0&14.2	?	0.6&0.5	9.0&-7.5	-0.1&0.0	-5.7&-6.6	2.3&8.1	6.4&8.9
COc1ccc(N(CC(=O)NCCC2=CCCCC2)S(=O)(=O)c2ccccc2)cc1	18.8	68.6%	-0.5	8.9	4.5	-6.8	-3.5	4.8
COc1cccc(CNC(=O)Cn2cccc2C(=O)c2ccccc2C)c1	-7.9	/	0.0	-5.8	0.5	-6.2	32.1	-12.0
COc1ccc(NCc2nc3ccccc3n2C)cc1	7.1	/	-6.7	7.6	-4.0	0.5	-31.8	4.9
Cc1cccc(-c2nnc(NC(=O)c3ccc(Cl)cc3)o2)c1	-19.3	20.1%	-0.8	/	-0.9	0.0	?	-0.9
CCN(CC)S(=O)(=O)c1ccc(C)c(C(=O)Oc2cccc(-c3cnc4ccccc4n3)c2)c1	-18.8	-22.6%	-2.4	-8.0	-2.7	-7.6	0.5	8.8
COc1cccc(C2=NOC(C(=O)NCCN3CCOCC3)C2)c1 (stereo not given)	-2.0	-3.6%	-0.7	/	-1.5	-4.6	-6.7	-1.7
Cc1ccc(CN2C(=O)NC(Cc3c[nH]c4ccccc34)C2=O)cc1 (stereo not given)	2.9	27.7%	-1.0	/	-0.4	1.6	-2.2	-10.7
O=C(/C=C/c1ccc(Cl)cc1Cl)Nc1cccc(S(=O)(=O)NC2=NCCC2)c1	5.5	-2.2%	-0.2	1.1	2.3	-1.5	-15.1	-4.5
O=C(OCC(=O)c1ccco1)c1ccc2ncsc2c1	-1.5	1.5%	-1.2	/	-4.4	0.5	-2.1	-2.7
CC(C)(C)Nc1nc(NCc2cccnc2)nc(N2CCOCC2)n1	3.4	6.7%	1.0	/	2.7	2.2	-11.1	0.7
COc1cc(CCC(=O)OCC(=O)Nc2ccccc2F)cc(OC)c1OC	-4.8	/	-1.1	1.0	3.7	0.0	-14.1	/
Cc1ccc(-n2nc3c(c2NC(=O)c2ccco2)CS(=O)C3)c(C)c1 (stereo not given)	-4.8	1.2%	-0.2	-1.6	2.6	-3.3	-5.9	/
O=C(O)C[C@]1(C(=O)Nc2ccc(F)cc2)CC(/C=C/c2ccccc2)=NO1	-4.2	3.3%	0.6	-6.3	-5.4	2.8	3.7	-5.8
COc1ccc(CC2(CO)CCN(S(=O)(=O)c3sccc3C)CC2)cc1	-2.3	-8.2%	-1.0	-0.5	4.5	-0.2	0.9	1.5
O=C(C1=C[C@H](c2coc3ccccc3c2=O)C[C@H](OCCCCO)O1)N1CCN(Cc2ccc3c(c2)OCO3)CC1	19.2	0.4%	2.6	-3.0	-2.3	5.0	-5.3	6.1

Bioassay records from PubChem.
